# Screening data from PubChem.
# WNV NS2B-NS3 inh – inhibitors of WNV NS2B-NS3 protease, primary screen, biochemical, fluorogenic substrate. Genome polyprotein (West Nile virus), P06935. fluorogenic substrate Ex360/Em465; hits give low values. z-score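 (tested at a level between 10 and 100 µM)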. actives 0.18% (n = 65,000). AID 577, 2007;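 active means z-score at -3 or under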;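 further: score is relative to mean and spread of the compound wells of a plate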
# Target sequence (P06935 1371-1501 limits assumed): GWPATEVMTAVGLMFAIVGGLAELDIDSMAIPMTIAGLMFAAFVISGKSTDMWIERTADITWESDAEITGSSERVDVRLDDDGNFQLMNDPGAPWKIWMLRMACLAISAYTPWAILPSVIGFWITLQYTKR
# Target sequence (P06935 1502-1679 limits assumed): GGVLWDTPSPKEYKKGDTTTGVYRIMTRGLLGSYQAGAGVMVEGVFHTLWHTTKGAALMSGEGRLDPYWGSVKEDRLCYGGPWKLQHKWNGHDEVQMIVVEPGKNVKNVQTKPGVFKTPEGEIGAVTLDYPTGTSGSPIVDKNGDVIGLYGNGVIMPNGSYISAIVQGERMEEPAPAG
# MT1-MMP reporter – inhibitors of MT1-MMP promoter transcription, cell-based, luciferase reporter, luminescence (AID 618) | MT1-MMP promoter luciferase reporter cells, luminescence | calls from a first round at 10 µM; hits with a dose series show EC50 in µM | actives 0.62% (n = 87,000);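 active means over half of the reporter light lost at 10 µM or EC50 under 50 µM; inactive means the rest and hits that failed the dose series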;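 further: actives suppress MT1-MMP promoter-driven transcription so potencies describe inhibitors; HT1080 fibrosarcoma cells; overnight exposure; toxic or luciferase-blocking compounds were not removed from the actives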
# Hsc70 ATP site – Hsc70 inhibitors, probe displacement, primary screen, biochemical, fluorescence polarization (AID 568). Heat shock cognate 71 kDa protein (Homo sapiens). one-dose displacement, % at 20 µM; IC50 in µM for titrated hits. Hsc70 fluorescence polarization, probe displacement; higher % means a stronger effect; strong numbers were not always called active. 83,000 tested, under 10 active;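 active means displacement above 50% without optical interference and an IC50 on retest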;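 further: ATPase domain with a fluorescein-tagged ATP probe; 0% = vehicle and 100% = excess ADP; read after one hour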
# The depositor's hits bear a star; i = inactive; x = no result given. No enrichment for hits, and some 0.77% of all compounds hit somewhere here.
SMILES,WNV NS2B-NS3 inh,MT1-MMP reporter,Hsc70 ATP site
O=C(NCc1ccc2c(c1)OCO2)C(c1ccco1)N(C(=O)c1csnn1)c1ccccc1 (stereo unspecified),-0.84,i,-6.8%
Cc1ccccc1OCCNC(=O)CNC(=O)c1ccccc1O,0.37,i,-3.5%
CC(=O)N1CCc2cc(S(=O)(=O)NC(C(=O)NCc3ccccc3)C(C)C)ccc21 (stereo unspecified),-0.67,i,-0.3%
CCc1cc(/C(Cc2csc(C)n2)=N/O)c(O)cc1O,x,i,5.3%
Cc1ccc(-c2nc3cnccn3c2Nc2ccc3c(c2)OCCO3)o1,0.21,i,-7.2%
C=CCn1c(SCC(=O)c2ccc(CNC(C)=O)o2)nc2scc(C3CC3)c2c1=O,-1.6,i,-17%
CC(C)(C)c1ccc(OC(=O)c2cccnc2)cc1,x,i,2.5%
N#CCCN1CCN(CCC#N)CC1,0.45,i,-3.7%
C=CCn1c(Cc2cccs2)nnc1SCC(=O)NCc1ccco1,x,i,3.5%
NC(=O)CCn1nc(-c2ccccc2)c2ccccc2c1=O,0.84,i,2.4%
N#Cc1c(C(F)(F)F)cc(-c2ccccc2)nc1SCc1nc(N)nc(N2CCOCC2)n1,1.7,i,-70%
COc1ccc2[nH]c(=O)c(CN(Cc3nnnn3Cc3ccccc3)CC3CCCO3)cc2c1 (stereo unspecified),-1.2,i,5.3%
COc1ccc(-c2nnc(SCC(=O)Oc3ccc(C)cc3)o2)cc1,x,i,-3.4%
CS(=O)(=O)N1CCc2cc(C(=O)OCC(=O)c3ccccc3)ccc21,0.31,i,-26%
CCc1cc(C(=O)Nc2ccc(C)cc2Br)cs1,x,i,0.1%
Cc1[nH]c2ccccc2c1C(=O)CSc1ncn[nH]1,-2.3,i,-1.3%
N#CCCN1CCN(S(=O)(=O)c2ccc(S(=O)(=O)NCC3CCCO3)cc2)CC1 (stereo unspecified),-2,i,4.9%
Cc1c(C(=O)NCc2ccc3c(c2)OCO3)oc2ccc(S(=O)(=O)N3CCCCC3)cc12,-0.36,i,-3.1%
CN(C)S(=O)(=O)N1CCC(Cc2ccccc2)CC1,0.16,i,1.2%
CN(C)/C=N/c1nc2ccc3c(c2s1)CCCC3,-0.61,i,3.9%
Cc1ccccc1-n1nc(C(=O)c2cccs2)cc(-c2nc3ccccc3[nH]2)c1=N,x,i,1.5%
CN(C)S(=O)(=O)c1ccc(N2CCOCC2)nc1,-0.07,i,3.2%
CC(=O)c1c(C)[nH]c(C(=O)N2CCN(c3ccc(F)cc3)CC2)c1C,x,i,2.2%
O=C(Nc1ccc2c3c(cccc13)CC2)c1ccco1,-0.02,i,3.8%
CCn1nnnc1SCC(=O)N1CCc2ccccc21,x,i,1.7%

# Random excerpt: four records from the list.
SMILES,WNV NS2B-NS3 inh,MT1-MMP reporter,Hsc70 ATP site
N#Cc1c(C(F)(F)F)cc(-c2ccccc2)nc1SCc1nc(N)nc(N2CCOCC2)n1,1.7,i,-70%
CC(=O)N1CCc2cc(S(=O)(=O)NC(C(=O)NCc3ccccc3)C(C)C)ccc21 (stereo unspecified),-0.67,i,-0.3%
CN(C)/C=N/c1nc2ccc3c(c2s1)CCCC3,-0.61,i,3.9%
CN(C)S(=O)(=O)N1CCC(Cc2ccccc2)CC1,0.16,i,1.2%

# (next part)
SMILES,WNV NS2B-NS3 inh,MT1-MMP reporter,Hsc70 ATP site
CCc1nc2ccccc2n1Cc1ccccc1OC,-0.96,i,-1.1%
CCCCc1cc(=O)oc2c(CN(C)C)c(O)c(Cl)cc12,7.2,i,1.1%
CC(NCCO)C(=O)C12CC3CC(CC(C3)C1)C2 (stereo unspecified),-1.2,i,3.2%
COc1cccc(C(=O)Nc2ccc(NC(=O)C(C)C)nc2)c1,-0.86,i,2.4%
COc1ccc(N2CCN(C(=O)CN(c3ccccc3)S(C)(=O)=O)CC2)cc1,-0.4,i,3.8%
O=C(O)CNc1nc(Cl)ccc1[N+](=O)[O-],x,i,3.2%
CC(=O)NC(CCS(C)(=O)=O)C(=O)N1CCc2ccccc21 (stereo unspecified),0.54,i,-30%
Fc1cccc2sc(N3CCOCC3)nc12,-0.08,i,-1.8%
COc1ccc(S(=O)(=O)NCCOc2ccccc2)cc1OC,-0.53,i,4.9%
O=C(CN1CCC(n2nnc3ccccc32)CC1)NCc1cccs1,0.19,i,4.9%
CCOc1cc(S(=O)(=O)NCc2ccccn2)c(C)cc1C,-0.96,i,0.3%
CC(C)CCNC(=O)CN(C)S(=O)(=O)c1cccc2nsnc12,-1.6,i,6.8%
COCCNC(=O)c1ccccc1NC(=O)c1ccc(OC)c(OC)c1,0.49,i,0.0%
Cc1ccc2nc(SCC(=O)Nc3ccccc3N3CCOCC3)c(C#N)cc2c1,x,i,6.1%
O=C(C1CCN(S(=O)(=O)c2cccc3nsnc23)CC1)N1CC=C(c2ccccc2)CC1,-1.1,i,1.8%
CCOc1cccc(NC(=O)C2CCCN(S(=O)(=O)c3ccc(OC)cc3)C2)c1 (stereo unspecified),-1.3,i,0.2%
Cc1oc(C(=O)Nc2ccc(O)cc2)cc1COc1ccccc1,0.71,i,2.0%
O=C(Nc1cccnc1)Nc1ccc2c(c1)OCO2,-0.44,i,7.3%
O=C(Cn1c(=O)oc2ccccc21)NC(=O)NCc1ccccc1,x,i,-0.1%
Nc1nonc1-c1nc2ccccc2n1CCC(=O)O,-0.5,i,3.0%
CCC(=O)N1c2ccc(S(=O)(=O)CCC(=O)N3CCn4c3nc3ccccc34)cc2CC1C (stereo unspecified),1.2,i,2.0%
CC1Oc2ccccc2C=C1C1/C(=C(/O)c2ccccc2)C(=O)C(=O)N1CCCN(C)C (stereo unspecified),0.27,i,0.2%
c1nc(NC2CCCCC2)c2[nH]cnc2n1,-0.32,i,-3.2%
O=C(Oc1ccc(Cl)c2cccnc12)N1CCCCCC1,x,i,0.4%
O=c1nc(N(c2ccccc2)c2ccccc2)[nH]c(=O)[nH]1,-0.85,i,3.9%
# (cont.)
SMILES,WNV NS2B-NS3 inh,MT1-MMP reporter,Hsc70 ATP site
CCOC(=O)C1=C(N)Oc2c(oc(CO)cc2=O)C1c1c(F)cccc1Cl (stereo unspecified),-1.1,i,-0.2%
Cc1ccc(C(=O)N2CCN(c3ccc(C(F)(F)F)cn3)CC2)c(C)c1,x,i,-2.2%
O=C(Cc1n[nH]c(=O)c2ccccc12)NCc1ccccn1,-0.54,i,-2.8%
O=C1c2cccnc2C(=O)N1Cc1cccs1,-1,i,1.0%
Cc1ccc(S(=O)(=O)N2CCN(S(=O)(=O)N3CCOCC3)CC2)cc1C,x,i,1.4%
CCOC(=O)c1oc2ccccc2c1CSc1nnnn1-c1ccccc1,-0.63,i,0.3%
C=CCn1c(SCc2c(C)noc2C)nc2sc3c(c2c1=O)CCCCC3,-0.56,i,4.6%
COc1cccc(OCCOc2ccccc2OC(C)C)c1,x,i,4.9%
CCN(CC)c1ncnc2c1sc1nc(C)cc(C)c12,x,i,-6.6%
COC(=O)CN1C(=O)C(C)=C(c2ccc(C)cc2)S1(=O)=O,0.04,i,-6.7%
C=CCNc1nc(Nc2ccc(OC)cc2)nc(OCC)n1,x,i,1.3%
Nc1csnc1C(=O)O,0.02,i,-5.3%
CCOC(=O)c1ccccc1Nc1cn(C(C)=O)c2ccccc12,x,i,-1.3%
Cc1ccc(OCCCC(=O)Nc2ccc3c(c2)OCO3)cc1,-0.75,i,-6.3%
CCOC(=O)N1CCN(CC(O)c2ccc3c(c2)CCN3)CC1 (stereo unspecified),-0.82,i,-3.7%
CC1CN(S(=O)(=O)c2cccc(-c3csc(-c4ccccc4)n3)c2)CC(C)O1 (stereo unspecified),x,i,2.5%
CS(=O)(=O)N(CC(=O)N1CCN(C(c2ccccc2)c2ccccc2)CC1)C1CCCCC1,x,i,4.3%
Cc1nn(Cc2ccccc2Cl)c(C)c1C(=O)Nc1nnc(C2CC2)s1,-1.4,i,-4.6%
C[C@]12CC[C@@H]3c4ccc(OC(=O)c5ccccc5)cc4CC[C@H]3[C@@H]1CC[C@@H]2O,0.07,i,3.9%
COc1cccc(C(=O)NC2CCSC2=O)c1 (stereo unspecified),-0.77,i,1.2%
Cc1cc(C)cc(N(CC(=O)N2CCN(c3ccccc3)CC2)S(=O)(=O)c2c(C)noc2C)c1,-0.92,i,1.3%
CSc1nc(C)cc(OCCO)n1,x,i,2.6%
CN(C(=O)c1ccccn1)c1nnc(-c2cnccn2)s1,1.4,i,2.6%
CC12COC3(C(=O)Nc4ccc(Cl)cn4)CC1CCC32C (stereo unspecified),-0.88,i,-1.6%
O=C(CCn1c(=O)c2sccc2n(CC(=O)NCc2ccco2)c1=O)NCc1ccccc1,0.38,i,-0.4%

# The last three compounds of the part before open the next one.
SMILES,WNV NS2B-NS3 inh,MT1-MMP reporter,Hsc70 ATP site
CN(C(=O)c1ccccn1)c1nnc(-c2cnccn2)s1,1.4,i,2.6%
CC12COC3(C(=O)Nc4ccc(Cl)cn4)CC1CCC32C (stereo unspecified),-0.88,i,-1.6%
O=C(CCn1c(=O)c2sccc2n(CC(=O)NCc2ccco2)c1=O)NCc1ccccc1,0.38,i,-0.4%
CCOC(=O)c1[nH]c(Cc2[nH]c(C(=O)OCC)c(C)c2CCC(=O)OC)c(CCC(=O)OC)c1C,-0.01,i,6.2%
COC(=O)COC(=O)c1ccc(-n2nnnc2SC)cc1,-0.63,i,3.6%
CCN(CC)CCNC(=O)NC1CCCCC1,1.7,i,-1.7%
CCn1c(SCC(=O)NCC(=O)Nc2ccc(F)cc2)nnc1-c1cccs1,0.03,i,-1.4%
CCS(=O)(=O)NCc1cn2c(C)csc2n1,-0.69,i,5.1%
CCC(=O)N1CCc2cc(Br)cc(S(=O)(=O)N3CCN(c4ccccn4)CC3)c21,-1.1,i,-0.7%
COc1ccc(OC)c(NC2c3ncccc3C(=O)N2Cc2ccco2)c1 (stereo unspecified),0.26,i,8.4%
CSc1nc(-c2ccco2)nn1S(C)(=O)=O,0.3,i,-0.4%
Cc1cccc(-n2c(O)c(C=NC3CCS(=O)(=O)C3)c3ccccc3c2=O)c1 (stereo unspecified),x,i,-1.2%
CCOC(=O)N1CCC(n2c(SCC(=O)NCCC3=CCCCC3)nc3ccccc3c2=O)CC1,0.74,i,-5.3%
CCOC(=O)c1c(-c2cccs2)csc1NC(=O)c1ccncc1,-0.47,i,9.8%
CCCN(CCC(=O)Nc1cc(OC)cc(OC)c1)CC1CC1,-0.47,i,12%
Cc1c(Nc2nc3ccccc3nc2NS(=O)(=O)c2cccs2)c(=O)n(-c2ccccc2)n1C,x,i,1.5%
CSc1nccc(-c2cc(Cl)sc2Cl)n1,x,i,8.9%
CC(=O)c1sc(NC(=O)C(C)(C)C)nc1C,x,i,3.4%
CC(Oc1ccc(Cl)cc1)C(=O)Nc1nccs1 (stereo unspecified),0.19,i,-1.5%
CCCCNC(=O)Nc1ccnn1C1CCCCC1,0.0026,i,-7.2%
CCCNC(=O)c1c(NC(=O)C2COc3ccccc3O2)sc2c1CCCC2 (stereo unspecified),x,i,-0.4%
Cc1ccnc(Sc2nc3c(c(=O)[nH]c(=O)n3C)n2CCCc2ccccc2)n1,-1.3,i,-0.9%
O=C(Cn1c(=O)sc2ccccc21)Nc1ccccc1C(=O)O,0.42,i,5.7%
CSc1ccc(-c2c(C#N)c(N)nc3c2CCCC3)cc1,1.4,i,-2.9%
CC1=C(C(N)=O)C(c2ccccc2)n2nc(-c3cccs3)nc2N1 (stereo unspecified),-1.4,i,-3.9%
CN(C)/N=C/C=C1\CC/C(=C\c2ccc(Br)cc2)C1=O,x,i,-63%
O=C(O)CCC(=O)NCc1ccc2[nH]c3c(c2c1)CCCC3,-0.09,i,12%
Cc1cc(C(=O)Nc2ccccn2)cs1,0.33,i,9.5%
# Next records follow.
SMILES,WNV NS2B-NS3 inh,MT1-MMP reporter,Hsc70 ATP site
O=C(COc1ncnc2ccccc12)N1CCN(S(=O)(=O)c2ccccc2)CC1,0.5,i,0.5%
COc1ccc(OC)c(NC(=O)C2CCN(c3nc(C)cc(C)n3)CC2)c1,0.25,i,-7.7%
O=C1c2ccccc2C(=O)N1Cc1ccco1,-0.01,i,3.6%
CCOC(=O)c1ccc(N2C(=O)C(C)=C(C)C2=O)cc1,-0.97,i,2.6%
CC(C)N(Cc1ccccc1)C(=O)c1cnc2n(c1=O)CCS2,0.84,i,4.5%
O=C(Nc1ccc2nc(-c3cccnc3)[nH]c2c1)c1ccco1,0.54,i,7.7%
c1coc(CNCc2cccs2)c1,x,i,2.5%
COc1ccc(N2C(=O)C3CCCN3C2c2ccccc2)cc1 (stereo unspecified),0.46,i,-0.5%
Cc1c(NC(=O)c2cccc(F)c2)c(=O)n(-c2ccccc2)n1C,0.27,i,-4.5%
Cn1nc(OC(=O)Nc2cccc(Cl)c2)cc1C(F)(F)F,x,i,-4.1%
CC(C)c1ccc(NC(=O)CSc2nc3c(c(=O)[nH]2)CCC3)cc1,1.9,i,-2.2%
CS(=O)(=O)N(CC(=O)N1CCCC1)c1cccc(Cl)c1Cl,-0.62,i,4.1%
CC(=O)Nc1nnc(SCC(=O)N2CCN(Cc3ccccc3)CC2)s1,x,i,3.5%
CCCCNC(=O)CCSc1nc2nc(C)cc(C)n2n1,0.66,i,2.4%
O=C(Cn1c(=O)n(-c2ccc(F)cc2)c(=O)c2sccc21)N1CCCC1,0.88,i,4.5%

# Single values from above.
# O=C1c2ccccc2C(=O)N1Cc1ccco1 | Hsc70 ATP site = 3.6%
# CS(=O)(=O)N(CC(=O)N1CCN(C(c2ccccc2)c2ccccc2)CC1)C1CCCCC1 | Hsc70 ATP site = 4.3%
